Bioassay records deposited in PubChem BioAssay by several laboratories.
AF4-AF9 inh: blocks AF4 peptide binding to human AF9; P42568; AlphaScreen, biotin-AF4 peptide binding to FLAG-AF9; inhibition, % at 10 µM; actives 0.47% (n = 350,000);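 active = every replicate reaching a set inhibition limit, whatever the replicate mean, cut at about 25% in these data; inconclusive = mean inhibition reaches that limit but some replicates miss it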;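 also: 0% = plate neutral control median and 100% = total signal loss; the record names both 10 and 1 µM as test concentration; the first replicate is given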
Target sequence (P42568 whole entry, looked up): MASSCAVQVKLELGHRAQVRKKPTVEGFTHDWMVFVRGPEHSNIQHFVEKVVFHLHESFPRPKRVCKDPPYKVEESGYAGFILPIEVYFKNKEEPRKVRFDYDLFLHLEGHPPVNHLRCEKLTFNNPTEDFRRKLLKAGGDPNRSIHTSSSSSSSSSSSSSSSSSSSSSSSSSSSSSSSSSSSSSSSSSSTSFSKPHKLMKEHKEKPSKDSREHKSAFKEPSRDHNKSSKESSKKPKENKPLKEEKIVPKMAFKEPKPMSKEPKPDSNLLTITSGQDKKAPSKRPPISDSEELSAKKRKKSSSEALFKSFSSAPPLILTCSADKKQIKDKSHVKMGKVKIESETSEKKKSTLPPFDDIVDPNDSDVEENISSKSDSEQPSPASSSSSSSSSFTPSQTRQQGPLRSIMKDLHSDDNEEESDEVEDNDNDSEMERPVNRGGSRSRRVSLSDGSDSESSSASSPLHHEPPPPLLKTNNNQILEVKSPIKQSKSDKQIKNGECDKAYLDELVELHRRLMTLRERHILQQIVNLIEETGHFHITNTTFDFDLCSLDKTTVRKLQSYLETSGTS
FGF22 binding: binders of recombinant human FGF22 by thermal shift. SYPRO orange fluorescence; percent of sucrose octasulfate shift, DMSO zero. calls only at 9.99 µM. actives 1.5% (n = 340,000);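 active = melting point raised past a set limit in the mean and every replicate; inconclusive = no clear call; three in four hits are not shown here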
Target sequence (Q9HCT0 whole entry, looked up): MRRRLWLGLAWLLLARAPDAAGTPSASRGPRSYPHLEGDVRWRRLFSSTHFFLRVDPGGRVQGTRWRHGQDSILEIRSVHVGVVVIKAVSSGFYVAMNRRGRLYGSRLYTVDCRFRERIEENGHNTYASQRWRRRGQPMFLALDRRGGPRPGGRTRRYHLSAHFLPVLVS
HNF4A DNA FP: change in binding of human HNF4 alpha to DNA | P41235 | HNF4a-FITC DNA binding, fluorescence polarization, 1 h | activity change, % at 10 µM | actives 0.3% (n = 360,000) | AID 1224865; in the data active = activity change above about 30%, passing the limit was not always enough;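 also: controls were the assay level and a saturating level of protein; the project sought stronger binding though the title names inhibitors; some compounds called inactive have numbers as strong as hits; positive values seem to mean higher polarization but the record does not say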
E coli growth: inhibitors of Escherichia coli growth. OD600, 23 h; hits give low values. OD600 absorbance (concentration not given with the values). actives 0.21% (n = 330,000);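 active = OD600 absorbance below the run mean of sample wells minus 3.6 SD, in any replicate, cut at about 0.56 in these data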;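 also: stock transfer was 300 nL into about 60 µL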
RanGTP-Imp inh: disruptors of Ran-importin-beta complex formation – biochemical, FRET, CFP-Ran, YFP-importin-beta, homogeneous, primary screen; cell-free CFP-Ran/YFP-importin-beta FRET ratio; inhibition, % (concentration not given with the values); actives 1.1% (n = 300,000);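 active = most replicates above 15%; inconclusive = exactly half above 15%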;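 also: 0% = DMSO wells and 100% = Ran loaded with GDP instead of GTP; wells of about 40 µL received 100 nL stock; the first replicate is given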
Vif TR-FRET: HIV-1 Vif–A3G interaction blockers – biochemical, TR-FRET, GST-Vif 1-94, biotin-A3G peptide, dose response retest, primary screen (AID 1117319). TR-FRET GST-Vif / biotin-A3G peptide binding; higher % means a stronger effect; test concentration not given here; strong numbers were not always called active. one-dose inhibition, %; IC50 in µM for titrated hits. actives 0.57% (n = 260,000);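 active = above the screen mean plus three standard deviations and confirmed in dose response; inconclusive = results disagree or hit not tested in dose response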;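 also: Vif residues 1-94 fused to GST binding biotinylated APOBEC3G peptide 110-148; 0% = full assay without inhibitor and 100% = GST in place of GST-Vif; retest series ran down from 100 µM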
UCH37 DUB inh: inhibitors of human deubiquitinating enzyme UCH37; Q9Y5K5; purified proteasome/UCH37, Ub-AMC cleavage fluorescence; inhibition, % (no concentration beside the values); actives 0.33% (n = 330,000); AID 588478;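 active = mean of two replicates above 20%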;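 also: 0% = compound-free wells with enzyme and 100% = wells lacking proteasome; stock transfer was 100 nL into about 20 µL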
Target sequence (Q9Y5K5 whole entry, looked up): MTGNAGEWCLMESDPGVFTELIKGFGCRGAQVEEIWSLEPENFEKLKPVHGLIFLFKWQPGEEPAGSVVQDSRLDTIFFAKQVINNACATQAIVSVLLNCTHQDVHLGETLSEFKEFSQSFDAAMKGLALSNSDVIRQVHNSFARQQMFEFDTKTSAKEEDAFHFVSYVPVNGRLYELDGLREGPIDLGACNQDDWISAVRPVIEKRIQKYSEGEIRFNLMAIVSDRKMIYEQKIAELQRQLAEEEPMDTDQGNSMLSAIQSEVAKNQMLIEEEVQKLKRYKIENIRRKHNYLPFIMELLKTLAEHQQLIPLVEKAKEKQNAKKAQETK
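Signal – fluorescence, ex 355 nm, em 460 nm · System – Proteasome-bound UCH37 · Input – 0.15 nM proteasome as dispensed · Timing – 30 min preincubation with enzyme, 25 min cleavage at room temperature · Read-out basis – percent inhibition of cleavage signal versus uninhibited and no-proteasome wells · Medium – Tris-HCl pH 7.4 with ATP-MgCl2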
* = called active by the depositor; i = inactive; ? = inconclusive; . = no result given; & = joins results of further samples. Not all compounds are listed; count on the stated rates, not on these rows.

SMILES | AF4-AF9 inh | FGF22 binding | HNF4A DNA FP | E coli growth | RanGTP-Imp inh | Vif TR-FRET | UCH37 DUB inh
O=C(O)C(Cc1cnc[nH]1)NS(=O)(=O)c1ccc(Cl)cc1 (stereo unspecified) | -1.1 | i | 2.8 | 0.65 | 0.6 | 5% | 0.0
COc1cc(OC)c([C@H]2C=C(C)[C@H]3C[C@@H]2C3(C)C)c(OC)c1 | -8.0 | i | -3.5 | 0.6 | 2.8 | . | 2.7
COc1cc2c(cc1OC)C13CCN4C=C5CCOC6CC(=O)N2C1C6C5CC43 (stereo unspecified) | -8.2 | i | 3.9 | . | . | -12% | .
CC(c1ccccc1)n1cncc1C(=O)N1CCCC1=O (stereo unspecified) | . | . | 1.3 | 0.7 | -2.2 | 0% | 3.3
CCOc1ccc(N2C(=O)CC(=O)NC2=O)cc1 | -2.2 | i | 1.8 | 0.64 | 4.1 | 3% | 3.4
COC(=O)C1=Nc2ccccc2/C1=C\c1c(O)n(-c2ccc(OC)cc2)c(=O)[nH]c1=O | . | . | 3.2 | 0.63 | 4.5 | 10% | 3.2
CCCCn1c(O)c(C(CC)=NCc2cc(OC)cc(OC)c2)c(=O)[nH]c1=O | . | . | 2.4 | 0.79 | -2.5 | 27% | 2.7
CSc1nc(NC(C)C)nc(NC(C)C)n1 | -2.0 | i | 2.7 | 0.66 | . | 8% | 2.2
Cc1ccc(OP2(=O)Nc3cc(C)c(C)cc3S2)cc1 (stereo unspecified) | 8.8 | i | 0.4 | 0.69 | . | 13% | 4.0
COC(=O)[C@@H]1[C@@H](C(=O)OC)C2(c3ccccc3-c3ccccc32)N(c2ccc(Cl)cc2)N1C#N | . | . | 0.4 | 0.72 | -1.0 | -2% | 3.4
c1ccc2c(N3CCNCC3)nsc2c1 | -4.5 | i | 2.9 | 0.68 | -2.6 | 1% | -0.4
O=C(c1cn(Cc2ccccc2)c2ccccc12)N1CCCCC1 | 1.4 | i | 0.2 | 0.72 | -3.1 | -1% | 5.6
O=C1NCN(c2ccccc2)C12CCN(C(c1ccnc3ccccc13)c1nnnn1-c1ccc3c(c1)OCCO3)CC2 (stereo unspecified) | 0.1 | i | -0.9 | . | . | . | .
N#Cc1ccccc1Cn1cc(C(=O)c2ccccc2F)c2ccccc21 | . | . | 6.2 | . | 4.0 | 1% | .
CCN[C@@H](C)Cc1cccc(C(F)(F)F)c1 | . | i | 1.3 | 0.75 | . | . | -1.8
CCCCn1c(NC(=O)c2ccc(Br)o2)c(C(=O)OCC)c2nc3ccccc3nc21 | -3.3 | i | 0.1 | . | . | -3% | .
O=C(COc1ccccc1)N1CCN(C2CC3CCC2C3)CC1 (stereo unspecified) | . | . | -2.6 | 0.68 | -2.1 | -8% | -1.6
CCOC(=O)C12C(=O)OCC1C2c1ccccc1 (stereo unspecified) | -2.2 | i | 0.6 | . | . | . | .
O=C(CCC(=O)N1C[C@H]2C[C@@H](C1)c1cccc(=O)n1C2)NCc1ccc(F)cc1 | . | i | 2.1 | 0.69 | . | . | 2.8
CN(C)C(=O)Oc1ccc(OC(=O)N(C)C)cc1 | . | . | -0.9 | 0.76 | ? | ? | 1.4
COc1ccccc1CN1CCCCC1c1cccnc1 (stereo unspecified) | -0.1 | . | -0.6 | 0.69 | -1.0 | 11% | 1.0
COCCn1c(O)c(/C=N/NC(=O)CSC(=S)N2CCCC2)c(=O)[nH]c1=S | -1.3 | i | 3.5 | 0.71 | . | -15% | 10
CN1C(=O)NC(=O)/C(=C/c2ccc([N+](=O)[O-])o2)C1=O | -5.9 | i | . | 0.3* | -8.8 | . | 22*
CC(C)CC(NC(=O)C1CCCCC1)C(=O)N1CCC2(CC1)OCCO2 (stereo unspecified) | . | . | -2.1 | 0.72 | -4.1 | 3% | 1.3
CCN1C(=O)CC(c2cccnc2)=Nc2ccccc21 | -1.0 | i | -2.3 | 0.67 | 1.2 | -10% | -0.9
O=c1cccc2n1CC1CC2CN(c2ncnc3c2cnn3-c2ccccc2)C1 (stereo unspecified) | . | . | 0.8 | 0.69 | -4.7 | 4% | 0.1
CN(C)CCN=Cc1c(O)n(C2CCCCCC2)c(=O)[nH]c1=O | . | . | 4.2 | 0.81 | -1.5 | 5% | 5.4
Cn1c(O)c(/C=N/NC(=O)c2ccncc2)c(=O)n(C)c1=S | 4.6 | . | 14 | 0.6 | 3.0 | -2% | -17
CCOC(=O)c1sc(N=Nc2c(O)[nH]c(=O)[nH]c2=O)c(C(=O)OCC)c1C | . | . | . | 0.69 | 3.8 | . | 3.0
O=C(NCCN1CCOCC1)c1ccc(Cl)nc1Cl | -4.8 | i | 0.9 | 0.71 | 10 | . | 1.0
O=C1Nc2ccc(Br)cc2C(c2ccc(Cl)cc2)=NC1O (stereo unspecified) | 3.4 | i | 4.5 | 0.68 | -0.1 | -21% | 3.1
O[C@@H]1CCCC[C@H]1N1CCC(c2ccccc2)CC1 | 1.7 | i | -2.5 | . | -1.4 | 4%&-12% | 2.9
CCOP(=O)(OCC)C(O)c1cccc([N+](=O)[O-])c1 (stereo unspecified) | 0.4 | i | 1.5 | 0.68 | 1.6 | 2% | 1.6
CC(=O)OC1C2CCCC1C(N1CCCC1)CC2 (stereo unspecified) | . | . | 0.1&0.2 | 0.73&0.78 | 2.7&2.1 | ? | 4.3&-1.0
COc1ccc(CNC(=O)CCC(=O)N2C[C@H]3C[C@H](C2)c2cccc(=O)n2C3)cc1OC | -5.0 | i | 4.0 | 0.74 | 5.0 | . | 1.6
C[C@H]1C(=O)O[C@@H]2CCN3CC=C(COC(=O)[C@](C)(O)[C@]1(C)O)[C@H]23 | -0.2 | i | 6.4 | . | . | . | 1.5
C[C@]12CCC3C(CC[C@H]4C[C@@H](O)CC[C@]34C)C1CC[C@@H]2O (stereo partly specified) | -3.5 | i | -0.1 | 0.64 | . | 5% | -0.1
O=C(NCCCN1CC1)Nc1cccc2ccccc12 | 5.7 | i | 4.3 | . | . | . | .
Cc1nn(Cc2ccccc2)c(C)c1C(=O)NC1CCCc2ccccc21 (stereo unspecified) | -4.4 | i | -6.1 | 0.65 | -2.5 | 8% | 3.5
COC(=O)C1=C(c2cccc(C#N)c2)C[C@@H]2CC[C@H]1N2C(=O)NCCc1ccccc1 | . | i | 0.2 | . | . | . | 1.3
O=C(COc1ccc(Cl)cc1)N(c1ccccc1Cl)C1CN2CCC1CC2 (stereo unspecified) | 3.3 | i | 10 | 0.62 | -0.5 | -1% | 4.7
CCOC(=O)c1c(/N=C/c2c(O)n(-c3cccc(C)c3)c(=O)[nH]c2=O)sc2c1CCCC2 | . | . | 25 | 0.7 | -0.7 | -5% | -299
CCCC(C)n1[nH]c(=O)c2c1NC(=O)CSC2c1ccc(OC)c(OC)c1 (stereo unspecified) | . | . | 0.5 | 0.73 | 2.3 | 28% | 4.8
CC(=NCCC1=CCCCC1)c1c(O)[nH]c(=O)[nH]c1=O | . | . | -0.7 | 0.74 | 5.3 | 0% | 0.5
CC(C)N(C(=O)CCl)c1ccccc1 | -5.1 | i | 0.4 | . | . | . | .
COc1ccc(CN2CCNCC2)c(OC)c1OC | -1.7&-1.0 | i | 2.1&0.1 | 0.69&0.7 | 0.1 | . | -0.1&5.7
C[C@H](CO)N1C[C@H](C)[C@@H](CN(C)C(=O)Oc2ccccc2)OCc2cnnn2CCCC1=O | -3.1&-0.6 | i | 3.8 | . | . | 4% | .
O=P(NS(=O)(=O)c1ccc(Br)cc1)(Oc1ccccc1)Oc1ccccc1 | -2.6 | i | -2.5 | 0.68 | 0.3 | 10% | 2.3
CCCN1CCc2cc(O)cc3c2[C@H]1Cc1ccc(O)c(O)c1-3 | ? | i | -1.0 | . | 0.1 | . | 0.8
COC(=O)C1=C(c2ccc(S(C)(=O)=O)cc2)C[C@@H]2CC[C@H]1N2C(=O)NCCS(C)=O (stereo partly specified) | -5.2 | i | -1.8 | . | 1.1 | . | 1.7

Further results follow:
SMILES | AF4-AF9 inh | FGF22 binding | HNF4A DNA FP | E coli growth | RanGTP-Imp inh | Vif TR-FRET | UCH37 DUB inh
COc1ccccc1CCNCc1cccc(C(F)(F)F)c1 | 2.5 | i | 1.3 | 0.71 | 2.0 | -9% | 3.5
Cc1ccc(C)c(C2(O)CC(C)N(C)CC2C)c1 (stereo unspecified) | . | . | 2.5 | 0.73 | -1.2 | 4% | 0.4
O=[N+]([O-])c1ccc(CN2CC=C(c3ccccc3)CC2)cc1 | . | . | 1.7 | 0.68 | 1.6 | 2% | 4.6
CC(C)CNC(=O)/C=C/C=C/CCCCCC/C=C/c1ccc2c(c1)OCO2 | -0.8 | i | 6.7 | 0.74 | . | . | 5.3
COCCNC(=O)CN1C2CCC1CC(O)(c1cccnc1)C2 (stereo unspecified) | -0.2 | i | -0.3 | 0.63 | -6.3 | 5% | -7.9
CC(=Nc1ccc2c(c1)CCC2)c1c(O)n(-c2ccccc2)c(=O)[nH]c1=O | -0.4 | i | -1.5 | 0.73 | -0.4 | 24% | 2.3
C=CCN1C(=O)NC(=O)/C(=C/c2ccc(N(C)C)c(Br)c2)C1=O | -0.6 | i | 0.8 | 0.67 | 1.8 | 13% | 3.0
O=C1CC(N2CC=C(c3ccccc3)CC2)C(=O)N1c1ccc(F)cc1 (stereo unspecified) | 3.1 | i | 4.6 | 0.7 | -5.3 | 3% | 1.3
CS(=O)(=O)c1ccc(C(=O)N2CCC(C(=O)O)(c3ccccc3)CC2)cc1 | -3.3 | i | 2.7 | 0.68 | 1.9 | . | -2.1
C=CCn1cc(C=C2C(=O)NC(=O)NC2=O)c2ccccc21 | -11 | i | 1.3 | . | 2.0 | 1% | .
O=C(Cn1cc(C=C2C(=O)NC(=O)NC2=O)c2ccccc21)NCC1CCCO1 (stereo unspecified) | 0.0 | i | -0.5 | 0.7 | 5.4 | . | 2.6
COc1ccc(N2C(=O)/C(=C/c3ccco3)C(=O)NC2=S)cc1 | -0.3 | i | -55 | 0.67 | -3.8 | . | 32*
Cc1ccc(C(C)C)c(OCC(=O)N2CCN(CC(=O)N3CCOCC3)CC2)c1 | 0.8 | i | 1.4 | 0.71 | . | 6% | 2.3
CCOC(=O)[C@]12Cc3ccccc3[C@H]1N(CCC(=O)OC)C(=O)c1cc(OC)ccc12 | -10 | i | 2.8 | . | . | . | .
CN1C(=O)C(=Cc2ccccc2OCCOc2ccc([N+](=O)[O-])cc2)C(=O)N(C)C1=O | -2.0 | i | 3.9 | 0.67 | 0.9 | 25% | 5.7
C[n+]1c(-c2ccccc2)sc2ccccc21 | -33 | i | -1.6 | 0.7 | 3.5 | . | 2.6

Not a retest: four of the compounds above.
SMILES | AF4-AF9 inh | FGF22 binding | HNF4A DNA FP | E coli growth | RanGTP-Imp inh | Vif TR-FRET | UCH37 DUB inh
Cc1ccc(C(C)C)c(OCC(=O)N2CCN(CC(=O)N3CCOCC3)CC2)c1 | 0.8 | i | 1.4 | 0.71 | . | 6% | 2.3
CCOC(=O)[C@]12Cc3ccccc3[C@H]1N(CCC(=O)OC)C(=O)c1cc(OC)ccc12 | -10 | i | 2.8 | . | . | . | .
CN1C(=O)C(=Cc2ccccc2OCCOc2ccc([N+](=O)[O-])cc2)C(=O)N(C)C1=O | -2.0 | i | 3.9 | 0.67 | 0.9 | 25% | 5.7
C[n+]1c(-c2ccccc2)sc2ccccc21 | -33 | i | -1.6 | 0.7 | 3.5 | . | 2.6
